# gsp ag – gsp mutant agonism. gsp mutant cells, cAMP HTRF, 30 min; control for the full effect not named in the record. hit rate 0.13% among 340,000. Potency, µM (titrated, usually from 76.9 µM), for inactives: at the highest dose activation (cAMP increase), most hits filed as activators; active = well fitted activation curve with a large enough effect; inconclusive = small, poorly fitted or top-dose-only effect, or another doubt; inactive = no such curve, though single readings can be large or run the other way; cell line not stated here;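 note: phosphodiesterase inhibitor Ro 20-1724 added with compounds to block cAMP breakdown; potency is the fitted concentration of half-maximal effect; nearly all actives have a fitted effect of over 60% in size; about a fifth of the inactives were tested at one dose only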
#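 Cells in DMEM/10% FBS with G418 were pretreated with compounds in DMSO plus […] (300 uM stock) for 30 min at 37C. cAMP was measured by HTRF (cAMP-d2 plus anti-cAMP antibody-K) after 30 min at room temperature.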
# ClpP mod – qHTS Assay for Activators of ClpP; AID 651965, 2013; ATP-dependent Clp protease proteolytic subunit (Bacillus subtilis (strain 168)), P80244; Potency, µM (titrated, usually from 57.5 µM), without a hit: top-dose activity change, negative = active; hit rate 1.9% among 340,000; purified B. subtilis ClpP, FRET peptide cleavage, 20 min; active = well fitted falling curve with a large enough effect; inconclusive = small, poorly fitted or top-dose-only effect; inactive = no such curve, though single readings can be large or run the other way; note: potency is the fitted concentration of half-maximal effect; the source files actives as falling curves though it sought activators and does not explain the sign; nearly all actives have a fitted effect of over 65% in size; many hits overshoot -100%
# Target sequence (P80244 whole entry, looked up): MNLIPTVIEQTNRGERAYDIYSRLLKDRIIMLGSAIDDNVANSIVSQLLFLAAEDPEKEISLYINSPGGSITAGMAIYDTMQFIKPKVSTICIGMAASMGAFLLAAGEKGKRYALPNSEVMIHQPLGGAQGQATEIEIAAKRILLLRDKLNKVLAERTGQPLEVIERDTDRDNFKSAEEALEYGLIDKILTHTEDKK
#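 Purified B. subtilis ClpP, 10 microg/mL final in Tris/HCl pH8 with KCl, BSA, glycerol and Tween-20, cleaved an Abz/nitrotyrosine-quenched decapeptide. Fluorescence (ex 320, em 430) was read at 0 and 20 min at room temperature. Delta was normalized to 5.8 microM ADEP and DMSO/no-enzyme controls.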
# gsp antagonist – antagonists of gsp mutant (McCune-Albright syndrome); Potency, µM (series often up to 76.9 µM), for inactives: at the top dose activity change, negative = inhibition, most hits filed as inhibitors; hit rate 0.4% among 340,000; AID 624288; gsp-mutant cells, cAMP HTRF, 30 min; control for the full effect not named in the record; active = falling curve of any shape with a large fitted effect; inconclusive = falling curve, mostly with a smaller effect; inactive = flat or rising curve; cell line not stated here;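 note: intracellular cAMP measured with PDE inhibitor Ro 20-1724 present during compound exposure; potency is the fitted concentration of half-maximal effect; % is set by controls: 0 for no effect and ±100 for the full control effect; nearly all actives have a fitted effect of over 65% in size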
#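 G418-selected cells were plated in DMEM/10% FBS for 16-24 h at 37C, then treated with compounds plus the PDE inhibitor […] (300 uM solution added) for 30 min at 37C. Intracellular cAMP was measured by HTRF after 30 min lysis at room temperature.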
# TRPML1 blocker – inhibitors of human TRPML1 channel; TRPML1-inducible cells, Ca2+ dye fluorescence, FDSS; hits give low values; inhibition of EC80 agonist-evoked calcium signal; activity change, negative = inhibition, % (test concentration not listed); AID 624415; Q9GZU1; hit rate 0.02% among 390,000; in the data active means activity change below about -50%; inconclusive means about -30% to -50%; inactive means above about -30%;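 note: stimulus is agonist 54-4 at its EC80 concentration; % is set by controls: 0 for no effect and ±100 for the full control effect; compound concentration not given in the record; the text of the record puts the active cut at -80%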
#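 Tet-induced TRPML1-DL cells loaded with Ca8 no-wash calcium dye were read kinetically on FDSS. Compound addition was followed by EC80 agonist 54-4 (4 uM final); inhibition was read over 110 s.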
# Sfp inh – inhibitors of Bacillus subtilis Sfp phosphopantetheinyl transferase | Biochemical Sfp PPTase activity, qHTS | Potency, µM, without a hit: max response, negative = inhibition, most hits filed as inhibitors | hit rate 3.5% among 310,000 | AID 1490; active = well fitted inhibition curve with a large enough effect; inconclusive = small, poorly fitted or top-dose-only effect, or another doubt; inactive = no such curve, though single readings can be large or run the other way;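 note: the enzyme is Sfp with the accession as filed and its product quenches rhodamine fluorescence; potency is the fitted concentration of half-maximal effect; 0% = enzyme reaction without inhibitor and -100% = no enzyme wells; top concentration of the series not given in the record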
#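 Reaction rates are the 30-min fluorescence difference (ex 525, em 598 nm) in wells containing 15 nM Sfp, 5 uM rhodamine-CoA and 12.5 uM BHQ-2-YbbR at pH 7.6 with 10 mM MgCl2.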
# Menin MLL FP FL – displaces fluorescein MLL peptide from human menin | Fluorescence polarization, fluorescein-MLL peptide displacement from menin | FP activity change, % at 61.4 µM | 290,000 tested, under 10 active; inconclusive = falling polarisation curve, or a change in total fluorescence; inactive = total fluorescence flat and polarisation flat or rising; no compound was filed as active; the % refers to the polarisation; negative = inhibition;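 note: % of control where 0% means no effect; inhibitors lower the polarisation; unlabelled MLL peptide was the positive control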
# TRPV1 PAM – human TRPV1 potentiation; TRPV1-expressing cells, Fluo-8 calcium influx, capsaicin EC20 potentiation; host cell line not named in the record; control for the full effect not named in the record; potentiation, % at 8.33 µM; hit rate 0.02% among 320,000; AID 540277; active means potentiation above 80%; inconclusive means 30% to 80%; inactive means below 30%; note: 0% is about no effect
# Target sequence (Q8NER1 whole entry, looked up): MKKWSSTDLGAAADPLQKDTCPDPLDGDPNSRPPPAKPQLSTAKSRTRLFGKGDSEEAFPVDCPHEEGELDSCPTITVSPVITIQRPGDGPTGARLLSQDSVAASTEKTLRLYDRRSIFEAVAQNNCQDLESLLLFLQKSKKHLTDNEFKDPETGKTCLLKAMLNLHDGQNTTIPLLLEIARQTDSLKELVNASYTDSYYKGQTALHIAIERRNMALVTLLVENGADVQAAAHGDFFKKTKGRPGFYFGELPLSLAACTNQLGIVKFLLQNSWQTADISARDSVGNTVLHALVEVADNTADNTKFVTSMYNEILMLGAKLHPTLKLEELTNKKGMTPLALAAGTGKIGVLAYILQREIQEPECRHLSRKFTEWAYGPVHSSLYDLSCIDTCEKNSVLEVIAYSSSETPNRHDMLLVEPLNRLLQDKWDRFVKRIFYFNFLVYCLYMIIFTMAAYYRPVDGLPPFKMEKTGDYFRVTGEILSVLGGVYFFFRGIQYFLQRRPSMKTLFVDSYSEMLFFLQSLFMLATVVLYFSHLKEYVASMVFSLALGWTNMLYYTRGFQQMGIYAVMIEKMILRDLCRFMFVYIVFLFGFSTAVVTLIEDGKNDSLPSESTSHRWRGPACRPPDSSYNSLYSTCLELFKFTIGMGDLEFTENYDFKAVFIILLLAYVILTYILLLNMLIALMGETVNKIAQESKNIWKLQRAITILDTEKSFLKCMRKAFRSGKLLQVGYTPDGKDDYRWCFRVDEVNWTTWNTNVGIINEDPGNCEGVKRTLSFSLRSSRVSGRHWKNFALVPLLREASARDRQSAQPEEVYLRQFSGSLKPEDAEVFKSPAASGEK
#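 Cells expressing TRPV1 were dye-loaded with Fluo-8 and read kinetically: 10 s baseline, 3 min after compound (agonist portion), then 2 min after EC20 capsaicin (allosteric enhancer portion). Calcium-bound dye fluorescence at 480/520 nm.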
# Active calls of the source: *; ? = inconclusive; · = no result given; & = joins results of further samples; [ ] = dose if it differs, or a comment.
SMILES,gsp ag,ClpP mod,gsp antagonist,TRPML1 blocker,Sfp inh,Menin MLL FP FL,TRPV1 PAM
Cc1ccc(CNc2ncnc(N)c2[N+](=O)[O-])cc1,16%[15.4 µM],·,-15%,0,13%,4.3,3
COc1ccc(NC(=O)CCN2CCCCC2)cc1,-69%,1.0%,-9%,-4,3%,5.4,-9
CN(NC(=O)NN)c1ncc(C(F)(F)F)cc1Cl,0%,-1.9%,1%,26,3%,-0.7,-4
Cc1cc(Cl)ccc1OC(C)C(=O)Nc1ccc([N+](=O)[O-])cn1 (centres undefined),-1%,0.9%,-15%,-11,12%,·,4
O=C(CN(C1CC1)S(=O)(=O)c1ccc(S(=O)(=O)NC2CCCCC2)cc1)Nc1ccccc1,13%,-2.2%,?,-9,27%,1.0,-1
O=C(NC(=S)NCc1ccc(Cl)cc1Cl)c1ccco1,2%[15.4 µM],0.3%,-2%,3,·,·,·
CCC1CCCCN1CCCNC(=O)c1ccc2c(c1)N(Cc1c(F)cccc1Cl)C(=O)CS2 (centres undefined),-3%,0.8%,5%,6,-3%,·,1
COc1ccccc1N1C(=O)S/C(=C\c2cc(C)n(C)c2C)C1=O,-52%[inhibitor],-5.4%,-14%,8,-12%,18,-7
O=C(NCSc1ccnc(SCNC(=O)c2ccc(F)cc2)n1)c1ccc(F)cc1,?,1.1%,10%,-3,8.9µM*,1.4,-3
Oc1ccc(-c2nc3ccccc3nc2-c2ccc(O)cc2O)c(O)c1,-4%,·,-11%,0,·,·,·
O=C(CSCc1ccc(Cl)cc1)NCCSCc1ccco1,8%[15.4 µM],-7.5%,-1%,-10,-7%,-3.1,-10
O=C(COc1cccc(NC(=O)c2ccco2)c1)c1ccccc1,0%,-0.5%,?,12,13%,2.5,-7
CCOc1ccc(NC(=O)c2nn(-c3ccc(OC)cc3OC)c(=O)c3ccccc23)cc1,·,·,·,·,-19%,-0.5,2
COC(=O)c1c(C)oc(C)c1S(=O)(=O)N1CCCC1,-4%,2.5%,6%,-17,22%,-0.7,13
COc1cc(NC(=O)Nc2cccc(C(C)=O)c2)cc(OC)c1OC,-4%,1.1%,-2%,10,-10%,-0.9,-14
N#C/C(=C\c1ccccc1)C(=O)NCc1ccc(F)cc1,7%,·,6%,7,-2%,3.8,-15
C=CCn1c(Cc2ccccc2)n[nH]c1=S,-11%[15.4 µM],·,7%,0,-16%,-0.6,14
O=C(O)CCCC(=O)Nc1ccc(Sc2ccc([N+](=O)[O-])cc2)cc1,-5%,-0.5%,-25%,-7,1%,1.6,-23
O=C(CCNC(=O)c1ccccc1Cl)NCc1cccnc1,6%[15.4 µM],-9.0%,7%,8,·,·,0
CCCCn1c(N)c(N(CC(C)C)C(=O)C2CCN(S(=O)(=O)c3ccc(C)cc3)CC2)c(=O)[nH]c1=O,-5%,0.7%,5%,-11,·,·,11
CC(=O)N1CCN(C2c3cccc4cccc(c34)C2NS(=O)(=O)c2ccccc2)CC1 (centres undefined),?,-1.6%,0%,7,-2%,-1.9,4
CN(C(=O)c1cccc(NC(=O)Cc2ccc(NC(=O)C3CCN(C(=O)c4ccccc4)CC3)cc2)c1)C1CC1,·,0.0%,1%,-12,·,·,·
CCOC(=O)C1=C(CS(=O)(=O)c2ccccc2)NC(=O)NC1c1ccccc1OC (centres undefined),1%,·,-6%,8,18%,-5.7,0
CCNC(=S)NCc1ccco1,-1%,-4.3%,8%,8,6%,5.0,-4
O=[N+]([O-])c1ccccc1OCCN1CCCC1,-16%,1.2%,16%,-1,15%,4.1,13
CC(C)CCN1CCC(C)(NC(=O)c2ccccc2)C1=O (centres undefined),·,-2.3%,1%,-23,·,·,2
O=C(O)c1ccc(S(=O)(=O)N(CCc2ccccc2)Cc2ccc(Cl)cc2)cc1,-18%,-1.2%,-25%,·,15%,-0.2,-3
Cc1cccnc1CCNC(=O)CC1C(=O)NCCN1CC1CCCCC1 (centres undefined),-31%[inhibitor],-23%,-10%,14,4%,-12,6
O=C(Nc1ccc2nc3ccccc3nc2c1)c1ccc(Br)cc1,?,1.1%,14%,25,-10%,5.3,10
NC(=O)c1ncn([C@@H]2O[C@H](CO)[C@@H](O)[C@H]2O)c1O,·,-0.1%,-3%,-5,-5%&-4%,1.5&2.9,7
O=C(NCc1ccccn1)C1CC(c2ccccc2Cl)=NO1 (centres undefined),25%,·,11%,-25,12%,0.4,-14
CC(=O)N1CCc2cc(S(=O)(=O)CCC(=O)Nc3ccccc3F)ccc21,-29%,0.0%,5%,30,5%,1.9,7
Cc1cccc(N2CCN(C(=O)NCc3ccc(F)cc3)CC2)c1C,-3%[15.4 µM],-0.3%,-1%,11,-8%,-0.2,-9
COc1ccc(NC(=O)c2ccc3ccccc3c2OC)cc1,6%,·,0%,-2,·,·,·
O=C(OCc1nnc(-c2ccc([N+](=O)[O-])cc2)o1)C1CC(=O)N(CCc2ccccc2)C1 (centres undefined),5%,-2.2%,-10%,-7,·,·,-1
O=C(O)c1cccc(N/N=C/c2ccc(F)c(F)c2)c1,-15%[15.4 µM],-0.2%,6%,-12,5%,0.1,8
Cc1cc(C(F)(F)F)n2nc(C)c(-c3ccc(Cl)cc3)c2n1,?,0.9%,0%,14,20%,3.1,-1
Cc1ccc(C(=O)NC(=S)Nc2ccc(CN3CCCCC3)cc2)c(C)c1,-8%,·,-9%,-4,9%,-0.4,-1
Cc1c(CC(=O)O)c(=O)oc2c(C)c(OCc3ccccc3)ccc12,13%,4.0%,-20%,·,11%,18,14
CC(C)=NNC(=O)CN1C(=O)NC2NC(=O)NC21 (centres undefined),-3%[15.4 µM],28µM*,6%,6,-5%,2.8,4

# In the list so far, these have an NH in an aromatic ring.
SMILES,gsp ag,ClpP mod,gsp antagonist,TRPML1 blocker,Sfp inh,Menin MLL FP FL,TRPV1 PAM
C=CCn1c(Cc2ccccc2)n[nH]c1=S,-11%[15.4 µM],·,7%,0,-16%,-0.6,14
CCCCn1c(N)c(N(CC(C)C)C(=O)C2CCN(S(=O)(=O)c3ccc(C)cc3)CC2)c(=O)[nH]c1=O,-5%,0.7%,5%,-11,·,·,11

# Structures above marked active in Sfp inh.
compound | gsp ag | gsp antagonist | TRPML1 blocker | Sfp inh | Menin MLL FP FL
O=C(NCSc1ccnc(SCNC(=O)c2ccc(F)cc2)n1)c1ccc(F)cc1 | ? | 10% | -3 | 8.9µM* | 1.4

# Some values from the results shown:
# `O=C(O)c1cccc(N/N=C/c2ccc(F)c(F)c2)c1` in Sfp inh is listed with 5%
# `CC(=O)N1CCc2cc(S(=O)(=O)CCC(=O)Nc3ccccc3F)ccc21` in gsp ag is listed with -29%
# `CCOC(=O)C1=C(CS(=O)(=O)c2ccccc2)NC(=O)NC1c1ccccc1OC` (centres undefined) in gsp ag is listed with 1%
# `Cc1cccnc1CCNC(=O)CC1C(=O)NCCN1CC1CCCCC1` (centres undefined) in gsp antagonist is listed with -10%

# Further results follow.
SMILES,gsp ag,ClpP mod,gsp antagonist,TRPML1 blocker,Sfp inh,Menin MLL FP FL,TRPV1 PAM
CCCCn1c(N)c(N(CC)C(=O)C2=NN(c3ccccc3)C(=O)CC2)c(=O)[nH]c1=O,-1%,1.8%,2%,2,·,·,5
O=C(O)CC(NS(=O)(=O)c1ccc(Br)cc1)c1ccco1 (centres undefined),5%,-1.9%,9%,3,13%,-0.5,5
Cc1ccc(CN2CCC(N3CCC(C(=O)NCC4CCCO4)CC3)CC2)o1 (centres undefined),-12%[15.4 µM],·,1%,2,?,-2.5,-3
O=C(CN1C(=O)NC2(CCCC2)C1=O)Nc1cc(C(F)(F)F)ccc1N1CCOCC1,-7%,-2.3%,5%,2,·,·,·
COc1ccc(C2N=C(N)N=C(N)N2c2ccc(C)cc2)cc1 (centres undefined),-26%,0.3%,1%,5,0%,4.8,-1
O=c1c2ccccc2nc(SCc2ccccc2F)n1C1CCCC1,0%,-3.2%,2%,-19,12%,-3.6,-4
O=C(CCc1[nH]c2ccccc2c1Sc1ccccc1)NCCO,14%,1.1%,-15%,-5,?,1.0,-17
CCOC(=O)CCSCC(=O)Nc1cc(C)on1,-64%[inhibitor],-3.2%,5%,-5,?,0.4,-9
CCOC(=O)c1nn(-c2ccc(C)cc2)c(=O)c2c(N)scc12,9%,0.7%,7%,49,3.5µM*,0.1,2
CC(=O)N1CC2(c3ccccc3)CN(C(C)=O)CC(c3ccccc3)(C1)C2=O,?,·,-5%,34,10%,2.1,-4
CNC(=O)COC(=O)c1nc(-n2nc(C)cc2C)ccc1Cl,?,2.3%,-4%,-11,-4%,-0.7,5
CCOC(=O)c1cc(-c2ccc(OC)cc2F)nc2c1c(C)nn2CCC#N,-2%,25µM*,-9%,7,?,3.8,-3
COc1ccc(C(CNC(=O)c2sccc2C)N2CCOCC2)cc1 (centres undefined),16%,1.2%,12%,0,·,·,-2
COc1ccc(OC)c(N(CC(=O)NCc2cccnc2)S(C)(=O)=O)c1,-23%,-1.0%,2%,2,9%,4.9,4
CCn1cc(C(=O)NCC(OC)OC)c(=O)c2cc(S(=O)(=O)N3CCOCC3)ccc21,-48%[inhibitor],-5.1%,-8%,-5,8%,·,26
COC(=O)c1c(S(=O)(=O)NCc2ccccc2)sc(C(=O)O)c1C,6%,-0.9%,-2%,-16,-1%,3.8,8
CCOc1ccccc1NC(=O)Cn1ncc2ccc([N+](=O)[O-])cc21,-1%[15.4 µM],1.2%,-33%,5,-6%,-0.4,2
Cc1ccc(C(C(=O)NCc2ccccc2)N(C(=O)c2ccccn2)c2ccccc2)o1 (centres undefined),4%,·,-9%,-7,8%,·,3
CCOc1ccc(CN2C(=O)c3ccccc3C2=O)cc1C(=O)N1CCC(C(N)=O)CC1,18%,-1.4%,5%,2,8%,·,7
COC(=O)/C=c1/sc2nc3ccccc3n2c1=O,15%,0.8%,-17%,10,11µM*,4.3,-15
COc1cccc(Oc2ncnc(N)c2[N+](=O)[O-])c1,3%,2.0%,-5%,26,10%,0.0,?
COc1ccc(-c2coc3cc(O[C@@H]4O[C@H](CO)[C@@H](O)[C@H](O)[C@H]4O)ccc3c2=O)cc1,·,-1.3%,9%,-2,·,·,·

# Assay outcomes deposited in PubChem BioAssay by National Center for Advancing Translational Sciences (NCATS).
